StopGo FLuc: FMDV 2A StopGo reporter, firefly signal | HEK cells with a luciferase reporter of 2A StopGo recoding | 120,000 compounds, 0.23% hits | Potency, µM (doses to about 57.5 µM), without a hit: at the top dose signal change, negative = less light; active = well fitted falling curve with a large enough effect; inconclusive = small, poorly fitted or top-dose-only effect; inactive = no such curve, though single readings can be large or run the other way; also: nearly all actives have a fitted effect of over 60% in size; overnight with compound
2A Renilla: lowers the Renilla signal of an FMDV 2A StopGo reporter; AID 1745857; HEK cells with a luciferase reporter of 2A StopGo recoding; Potency, µM (highest dose often 57.5 µM), for inactives: at the highest dose signal change, negative = less light; 120,000 compounds, 0.32% hits; active means well fitted falling curve with a large enough effect; inconclusive means small, poorly fitted or top-dose-only effect; inactive means no such curve, though single readings can be large or run the other way; also: nearly all actives have a fitted effect of over 55% in size; overnight with compound
Active calls of the source: *; ? = inconclusive; & = joins results of further samples; [ ] = remark or other dose. % is scaled to controls: 0 for no effect and ±100 for the full control effect; potency is read from the fitted curve at half-maximal effect. The list is partial; count on the stated rates, not on these rows.

| molecule | StopGo FLuc | 2A Renilla |
| --- | --- | --- |
| COc1ccc(C(=O)Nc2nnc(S(=O)(=O)N3CCN(c4ccc(C)cc4)CC3)s2)cc1 | -4% | -2% |
| COc1ccc(OCC(=O)N2CCN(CCc3ccncc3)CC2)cc1 | -9% | 0% |
| CC(C)(C)C(=O)Nc1ccc(C(=O)Nc2ccc(NC(=O)c3ccc(NC(=O)C(C)(C)C)cc3)c(Cl)c2)cc1 | ? | ? |
| O=C(/C=C/c1cccc(Cl)c1Cl)c1ccc(OC(F)F)cc1OC(F)F | 7% | 13% |
| O=C(c1ccc(Cl)cc1Cl)C(Br)C(O)C(Cl)(Cl)Cl (configuration not stated) | 0% | ? |
| CCOc1cc2c(cc1OCC)C(CC(=O)OC)N(C(=O)Nc1cc(C)cc(C)c1)CC2 (configuration not stated) | -7% | -10% |
| Cc1ccc(CN2CC(C(=O)N(C)CC(=O)Nc3cccc(F)c3)CC2=O)cc1 (configuration not stated) | 0% | 0% |
| CCOC(=O)c1c(C)[nH]c(C)c1S(=O)(=O)N1CCC(C(=O)N2CCN(c3cccc(C)c3)C(C)C2)CC1 (configuration not stated) | -10% | 7% |
| COc1cccc(C2c3c(n[nH]c3C)Nc3[nH]c(=O)[nH]c(=O)c32)c1O (configuration not stated) | -2% | -5% |
| COc1ccc(Cl)cc1NC(=O)C1CCN(S(=O)(=O)c2ccc3c(c2)CC(C)N3C(C)=O)CC1 (configuration not stated) | -10% | -6% |
| O=C(CSc1c2c(nc3cc(Cl)ccc13)CCCC2)N1CCN(c2ccccc2F)CC1 | 0% | 1% |
| Cc1ccc(N2CCN(C(=O)c3c(C)oc4ncn(CC(C)C)c(=O)c34)CC2)c(C)c1 | -10% | 8% |
| Cc1ccc(-c2nc(Cn3cccc(C(F)(F)F)c3=O)co2)cc1 | -21% | ? |
| CCc1c(C)nc2nncn2c1Nc1ccc(Cl)cc1 | 0% | 4% |
| CS(=O)c1ccc(C(=O)Nc2ccc(N3CCOCC3)cn2)cc1 (configuration not stated) | -1% | -5% |
| COCCNC(=O)Cn1nc(C)c2c(C)n(-c3ccc(C)cc3)nc2c1=O | 18% | -29% |
| Cc1cc2c(cc1C)-c1ccccc1C2=O | 137%[activator] | 11% |
| CCCNC(=O)CSc1nc2ccsc2c(=O)n1C | 5% | -8% |
| CC1(C)C2CCC1(C)C(OC(=O)C[N+]1(C)CCOCC1)C2 (configuration not stated) | 12% | -12% |
| O=C(Nc1ccc2oc(-c3cccnc3)nc2c1)c1ccccc1F | 165%&49%[activator] | 0%&-15% |
| Cc1ccc2nc(/C(C#N)=C\C3CC4C=CC3C4)[nH]c2c1 (configuration not stated) | 0% | ? |
| CCC(C)N(CCNC(=O)Cn1nc(Cc2cccnc2)c2ccccc2c1=O)Cc1ccco1 (configuration not stated) | -16% | -4% |
| COc1ccc(NC(=O)c2cc(S(=O)(=O)N3CCCCC3)cn2C)cc1Cl | -6% | -5% |
| COc1cccc(CNC(=O)Cn2ccc3cc(S(=O)(=O)N4CCCC4)ccc32)c1 | -21% | 8% |
| COc1ccc(NC(=O)c2cccc(NC(=O)c3ccc(Br)o3)c2)cc1 | 0% | 19% |

(more compounds)
| molecule | StopGo FLuc | 2A Renilla |
| --- | --- | --- |
| O=C(O)Cn1cc(C(C(=O)O)N2CCN(Cc3ccncc3)CC2)c2ccccc21 (configuration not stated) | 2% | 0% |
| COCCCNCc1cc(=O)oc2ccc3ccccc3c12 | 5% | 19% |
| Cc1ccc(CNC(=O)C2CC2)cn1 | 49%[activator] | 5% |
| COc1ccc(CCN2C(=O)c3[nH]nc(-c4ccccc4O)c3C2c2ccc(OC)c(OC)c2)cc1 (configuration not stated) | -2% | 71%[activator] |
| Cc1cccc(NC(NC(=O)c2ccc(Br)cc2)C(Cl)(Cl)Cl)c1 (configuration not stated) | ? | ? |
| COCCN(CCCc1ccccc1)CC(=O)N(C)C | 13% | -2% |
| COc1ccccc1-c1ccnc2c1c(=O)[nH]c(=O)n2CC1CCCO1 (configuration not stated) | 24% | 16% |
| COc1ccccc1NC(=O)CSc1ncc2c(n1)-c1cc(Cl)ccc1N(Cc1ccccc1)S2(=O)=O | -10% | -21% |
| CN(CC(=O)Nc1ccc(Cl)c(Cl)c1)CC(=O)N(C)C1(C#N)CCCCC1 | ? | ? |
| Cc1ccc(C)c(N2CCN(CCCNC(=O)c3cnn(-c4ccccc4Cl)c3C3CCN(C(=O)OC(C)(C)C)CC3)CC2)c1 | 2% | -3% |
| Cc1nc(-n2nc(C)c(Cl)c2C)sc1C(=O)N1CCCCC1C (configuration not stated) | 55%[activator] | 48%[activator] |
| Cc1cc2nc(NC(=O)c3ccc(S(=O)(=O)N4CCOCC4)cc3)sc2cc1C | 3% | -9% |
| Cc1ccc(CN2CCC(CNC(=O)Nc3c(C)cccc3C)C2)cc1 (configuration not stated) | 1% | -6% |
| CCOC(=O)c1ccc(NC(=O)C(C)Sc2nc(=O)cc(N)n2CCc2ccccc2)cc1 (configuration not stated) | 15% | 10% |
| Cc1ccc(NC(=O)CSCc2cnn(-c3ccccc3)c2-n2cccc2)c(Cl)c1 | -15% | 2% |
| C=CCN1[C@@H](C)COc2cccc(N3CCCC3)c2S1(=O)=O | 4% | 14% |
| O=C(CCCn1c(=O)c2cccn2c2ccccc21)Nc1cccc(Cl)c1 | 152%[activator] | 136%[activator] |
| CNC(=O)c1ccc(Nc2nnc(-c3ccc(C)c(S(=O)(=O)N4CCOCC4)c3)c3ccccc23)cc1 | 36%[activator] | -10% |
| CC(C)(CNC(=O)C1(c2ccc(F)cc2)CCC1)C(N)=O | -6% | 9% |
| COc1ccc(-c2cc(C(=O)NC(C)(CO)CO)c3ccccc3n2)cc1 | 0% | 9% |
| CC(C)C(=O)Nc1ccc2c(C(C(=O)O)N3CCN(c4ncccc4C#N)CC3)c[nH]c2c1 (configuration not stated) | -4% | -5% |
| CNC(=S)N(C)Cc1ccccc1Br | 4% | -7% |
| CONC(=O)COc1ccc(C#N)cc1 | 13% | -4% |
| Cc1c(NC(=O)C(C)(C)Oc2ccc(Cl)cc2)cccc1-c1nc2ccccc2o1 | -34% | -7% |
| CC(=O)Oc1ccccc1C(=O)Oc1ccc(F)cc1 | 13% | 9% |

Next section:
| molecule | StopGo FLuc | 2A Renilla |
| --- | --- | --- |
| COc1ccc(/C=C/c2nc(C#N)c(NCCc3ccccc3)o2)cc1OC | 94%[activator] | 3% |
| Cc1ccc2c(=O)cc(C(=O)Nc3c(C(=O)c4ccc(F)cc4)oc4ccccc34)oc2c1C | 7% | -14% |
| COc1ccccc1C(=O)N(Cc1nc(-c2cccc(C)c2)no1)C(C)C | -1% | 16% |
| Cc1ccc(NC(=O)C2CCN(S(=O)(=O)c3ccc4c(c3)CCCC(=O)N4)CC2)c(Br)c1 | -9% | -6% |
| CC(c1ccc(F)cc1)N(C)Cc1nc2sccn2c1Br (configuration not stated) | -4% | -6% |
| Cc1ccsc1C(=O)NNC(=S)NC(C)C | 21% | 18% |
| CC(C)[C@H](NC(=O)C12CC3CC(CC(C3)C1)C2)C(=O)O | -1% | 9% |
| COC(=O)c1ccc(NC(=O)c2nc3ccccc3n(C)c2=O)cc1 | 103%[activator] | 4% |
| CCn1c2ccccc2c2nnc(N3CCN(c4cc(C)ccc4C)CC3)nc21 | 1% | -4% |
| COc1cccc(NC(=O)CN2C(=O)c3ccccc3Sc3ncccc32)c1 | 42%[activator] | 9% |
| Brc1ccccc1OCc1noc(-c2ccco2)n1 | 143%[activator] | -16% |
| Cc1cccc(OCC(=O)Nc2ccc(C(=O)Nc3ccccc3C(=O)O)cc2)c1 | 8% | -3% |
| COc1ccc(CNC(=O)COCC(=O)N2CCN(c3ccccc3)CC2)cc1 | 4% | -5% |
| COc1ccc(C(C)NC(=O)CCc2ncc(-c3ccccc3)o2)cc1F (configuration not stated) | 14% | 4% |
| O=C(/C=C/c1cnc2ccccc2n1)NCc1ccccn1 | 119%[activator] | 6% |
| Cc1cc(C)cc(C(=O)NCC(=O)N2CCCC2c2ccccc2)c1 (configuration not stated) | 3% | 7% |
| Cn1nc(C(=O)NC2CCCCCCC2)c(Cl)c1C(F)(F)F | 112%[activator] | -13% |
| CCOc1ccc(NC(=O)c2c(NCc3cccnc3)sc3c2CCCC3)cc1 | 17% | 3% |
| CCN(C(=O)c1cc2c(s1)CCC2)C1CC1 | 0% | 3% |
| Cc1cc(C)n2nc(CNC(=O)c3cccc(N(C)C)c3)nc2n1 | 113%[activator] | 6% |
| O/N=C1\CCCc2c1nc(-c1ccc(F)cc1)n2O | 32%[activator] | 1% |
| COC(=O)c1c(NC(=O)c2cc3nc(-c4ccc(Br)cc4)cc(C(F)(F)F)n3n2)sc2c1CCCC2 | 9% | 25% |
| Cc1cccc(Cn2c(=O)n(Cc3ccc(C(=O)NC4CCN(Cc5ccccc5)CC4)cc3)c(=O)c3ccccc32)c1 | 28% | 14% |
| O=C(Nc1ccc2c(c1)OCO2)c1cc(=O)c(OCc2ccccc2F)co1 | -2% | -11% |
| COc1ccc(C(=O)OCc2ccccc2F)c(OC)c1OC | 67%[activator] | 43%[activator] |

Next entries follow.
| molecule | StopGo FLuc | 2A Renilla |
| --- | --- | --- |
| O=c1[nH]cnc2scc(-c3cccs3)c12 | 0% | 0% |
| CC1CC2(CCCC2)Nc2ccc(F)cc21 (configuration not stated) | -2% | 9% |
| Cc1cccc(CC(=O)NC(Cc2ccccc2)C(=O)NCc2cc(=O)n(C)c(=O)n2C)c1 (configuration not stated) | -11% | -11% |
| O=C(OCc1cccc(C(F)(F)F)c1)c1ccccc1C(=O)c1ccc(Cl)c([N+](=O)[O-])c1 | -5% | -11% |
| CNC1C2CC3CC(C2)CC1C3 (configuration not stated) | 3% | 2% |
| CCOc1ccc(NC(=O)c2cnn(-c3ccc(C)c(C)c3)c2C2CCN(C(=O)OC(C)(C)C)CC2)cc1 | 0% | 7% |
| CC(C)(C)CC(=O)NCC(c1ccc2c(c1)OCO2)N1CCN(c2ccccc2)CC1 (configuration not stated) | -21% | 15% |
| Cc1[nH]c2ccccc2c1C(c1ccccc1I)c1c(C)[nH]c2ccccc12 | -8% | ? |
| CC(C)Cc1ccc(C(C)NC(=O)c2ccc(CN3CCCC3)cc2)cc1 (configuration not stated) | -12% | -24% |
| CC(C)c1ccc(-n2ccnc(NCc3ccc4c(c3)OCO4)c2=O)cc1 | -14% | ? |
| COc1ccc(N2CCN(S(=O)(=O)c3ccc4oc(=O)c5ncn(C)c5c4c3)CC2)cc1 | -11% | -11% |
| CC(C)NC(=O)c1ccc(NC(=O)N2CCCCc3ccccc32)cc1 | 1% | -11% |
| O=C(CSc1nc2ccccc2n1C(F)F)c1ccc(Cl)cc1 | 3% | 13% |
| O=C(Nc1ccc(C(F)(F)F)cc1)c1cc(=O)c2ccccc2o1 | -1% | 3% |
| Cc1nn(C)c2c(=O)n(CC(=O)NCc3ccccc3C(F)(F)F)ccc12 | 12% | 3% |
| CC1CCCN(S(=O)(=O)NCc2ccnc(N3CCN(c4ccc(F)cc4)CC3)c2)C1 (configuration not stated) | -20% | -32% |
| O=C(OCc1ccco1)c1ccc2c(c1)N(Cc1ccc([N+](=O)[O-])cc1)C(=O)c1ccccc1S2 | -13% | -11% |
| CCC1(C)Cc2nc3sc4c(=O)n(CC(=O)NCCc5ccccc5)cnc4c3cc2CO1 (configuration not stated) | 98%[activator] | 7% |
| CN(C)C(=O)Cn1nc(-c2ccccc2)c2ccccc2c1=O | 6% | 0% |
| CCCc1nn2c(=O)cc(COC(=O)c3ccccc3NC(=O)COc3ccccc3)nc2s1 | -13% | -7% |
| Cc1cccc(C2(C(=O)C(C#N)C(=O)Nc3ccccc3F)CC2)c1 (configuration not stated) | 18% | 95%[activator] |
| O/N=C/c1cccc(OCc2ccc(F)cc2)c1 | 197%[activator] | 6% |
| COc1ccc2[nH]c(=O)c(COC(=O)c3ccccc3F)cc2c1 | 8% | -7% |
| CCOC(=O)C1=C(N)Oc2c(oc(CO)cc2=O)C1c1ccccc1F (configuration not stated) | 20% | 39%[activator] |
| O=C(c1ccncc1)N(Cc1cccs1)C1CC1 | 2% | -6% |

Next structures
| molecule | StopGo FLuc | 2A Renilla |
| --- | --- | --- |
| CCNC(=O)C(C)NC(=O)c1ccc(OC)c(S(=O)(=O)N(C)C)c1 (configuration not stated) | 4% | -1% |
| Cc1ccc(NC(=O)c2nc(S(C)(=O)=O)ncc2N(Cc2ccccc2)Cc2ccco2)c(C)c1 | -10% | -11% |
| Cc1cc(=O)n(CC(=O)N2CCCCC2C)c(-c2ccccc2)n1 (configuration not stated) | -8% | 9% |
| COc1ccc(CNC(=O)Cc2c(C)c3c(cc(C)c4c(C)coc43)oc2=O)cc1OC | -16% | 0% |
| CC(=O)c1ccc(NC(=O)C2CCN(S(=O)(=O)c3ccc4c(c3)CCCN4C(=O)C3CCC3)CC2)cc1 | -21% | -3% |
| CC(=O)N1CCC(C(=O)NCCC2=CCCCC2)CC1 | 16% | 12% |

In the list so far, 6 contain a CF3 group.
| molecule | StopGo FLuc | 2A Renilla |
| --- | --- | --- |
| Cc1ccc(-c2nc(Cn3cccc(C(F)(F)F)c3=O)co2)cc1 | -21% | ? |
| Cn1nc(C(=O)NC2CCCCCCC2)c(Cl)c1C(F)(F)F | 112%[activator] | -13% |
| COC(=O)c1c(NC(=O)c2cc3nc(-c4ccc(Br)cc4)cc(C(F)(F)F)n3n2)sc2c1CCCC2 | 9% | 25% |
| O=C(OCc1cccc(C(F)(F)F)c1)c1ccccc1C(=O)c1ccc(Cl)c([N+](=O)[O-])c1 | -5% | -11% |
| O=C(Nc1ccc(C(F)(F)F)cc1)c1cc(=O)c2ccccc2o1 | -1% | 3% |
| Cc1nn(C)c2c(=O)n(CC(=O)NCc3ccccc3C(F)(F)F)ccc12 | 12% | 3% |

Assay outcomes deposited in PubChem BioAssay by National Center for Advancing Translational Sciences (NCATS).
